Screening results deposited in PubChem by National Center for Advancing Translational Sciences (NCATS).
SARS PLP yeast: SARS-CoV PLP inhibition in yeast; 330,000 compounds, 0.19% hits; S. cerevisiae expressing SARS-CoV PLpro, growth rescue; control for the full effect not named in the record; Potency, µM (titrated, usually from 32.9 µM), without a hit: at the highest dose activity, positive = growth rescue; AID 485353; active means well fitted rising curve with a large enough effect; inconclusive means small, poorly fitted or top-dose-only effect; inactive means no such curve, though single readings can be large or run the other way; also: 0% is about no effect; nearly all actives have a fitted effect of over 55% in size; growth read by luminescence after 48 h
Lassa entry inh: inhibitors of Lassa virus binding or cell entry; Potency, µM (highest dose often 37.9 µM), for inactives: at the highest dose activity change, negative = inhibition, actives largely listed as inhibitors; Lassa virus pseudotype entry inhibition, cell reporter; control for the full effect not named in the record; 300,000 compounds, 1.2% hits; active means well fitted inhibition curve with a large enough effect; inconclusive means small, poorly fitted or top-dose-only effect, or effect the other way; inactive means flat fitted curve, though single readings scatter; tested in HEK293 cells; also: % is scaled to controls: 0 for no effect and ±100 for the full control effect; nearly all actives have a fitted effect of over 50% in size; luciferase read-out
MARV entry inh: blocks Marburg virus binding to or entry into cells; Marburg virus pseudotyped entry inhibition, cell reporter; control for the full effect not named in the record; about a third of the inactives were read at about 46 µM; Potency, µM (doses to about 37.8 µM), for the others: top-dose activity change, negative = inhibition, hits mostly inhibitors; 300,000 compounds, 1.8% hits; AID 540276; active = well fitted inhibition curve with a large enough effect; inconclusive = small, poorly fitted or top-dose-only effect, or effect the other way; inactive = flat fitted curve, though single readings scatter; tested in HEK293 cells; about a fifth of its hits are not listed in these tables; also: % is scaled to controls: 0 for no effect and ±100 for the full control effect; luciferase read-out
Cruzain inh noDet: cruzain (T. cruzi) inhibition without detergent; purified cruzain, Z-FR-AMC fluorescence, no detergent; 200,000 compounds, 2.3% hits; Potency, µM, for inactives: max response, negative = inhibition, most hits filed as inhibitors; P25779;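 also: plate controls were enzyme without inhibitor for no effect and buffer without enzyme for full effect; nearly all actives have a fitted effect of over 40% in size; top concentration of the series not given in the record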
Target sequence (P25779 123-467 limits assumed): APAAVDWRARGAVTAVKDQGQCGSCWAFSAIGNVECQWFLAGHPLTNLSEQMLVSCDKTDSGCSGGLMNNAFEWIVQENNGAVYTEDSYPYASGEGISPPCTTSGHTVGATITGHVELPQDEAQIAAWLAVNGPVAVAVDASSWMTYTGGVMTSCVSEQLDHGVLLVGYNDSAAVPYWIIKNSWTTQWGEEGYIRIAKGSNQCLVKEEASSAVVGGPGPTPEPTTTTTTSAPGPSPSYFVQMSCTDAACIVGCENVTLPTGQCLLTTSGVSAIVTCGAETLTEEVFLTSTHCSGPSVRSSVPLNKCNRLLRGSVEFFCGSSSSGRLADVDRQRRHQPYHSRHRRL
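Detergent-free condition (0.00005% Triton X-100) in acetate buffer pH 5.5 with DTT. 1.5 nM enzyme and compound were pre-mixed 15 min, then 2 uM Z-FR-AMC substrate added; reaction progress from fluorescence change between first and third reads (60 s).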
Cruzain inh Det: blocks cruzain activity in presence of Triton detergent; P25779; purified cruzain, Z-FR-AMC fluorescence, 0.01% Triton; Potency, µM, without a hit: max response, negative = inhibition, actives largely listed as inhibitors; 200,000 compounds, 0.43% hits; AID 1478;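 also: plate controls were neutral wells for no effect and buffer without enzyme for full effect; nearly all actives have a fitted effect of over 40% in size; top concentration of the series not given in the record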
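In this qHTS format, compounds are incubated with 1.5 nM cruzain for 15 min at room temperature before 2 uM Z-FR-AMC is added. Release of AMC is followed at 360/450 nm, and progress is taken as the 60 s fluorescence difference.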
RE007 growth inh: less growth of the S. pombe RE007 Vpr strain. 360,000 compounds, 0.21% hits. S. pombe RE007 Vpr strain, BacTiter-Glo ATP luminescence, 24 h; control for the full effect not named in the record. AID 651644. Potency, µM (titrated, usually from 92.2 µM), for the others: top-dose activity change, negative = less growth; active = well fitted falling curve with a large enough effect; inconclusive = small, poorly fitted or top-dose-only effect; inactive = no such curve, though single readings can be large or run the other way;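 also: % is scaled to controls: 0 for no effect and ±100 for the full control effect; nearly all actives have a fitted effect of over 50% in size; the assay follows cell death caused by Vpr and the record does not say whether a fall means rescue or toxicity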
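Fission yeast strain RE007, carrying one chromosomally integrated HIV-1 vpr copy, was seeded at OD 0.01 in PMG+AL medium with 23 nL pinned compound. After 24 h at 30 °C and 99% humidity, viability was read by BacTiter-Glo luminescence.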
NS1 inh: blocks influenza NS1 protein function; Potency, µM (titrated, usually from 46.1 µM), without a hit: at the top dose activity, positive = more growth; S. cerevisiae slowed by influenza A NS1, growth recovery by OD600; AID 2326; 270,000 compounds, 0.4% hits; active means well fitted rising curve with a large enough effect; inconclusive means small, poorly fitted or top-dose-only effect; inactive means no such curve, though single readings can be large or run the other way; also: nearly all actives have a fitted effect of over 50% in size
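A cell-based growth assay was used: compounds that relieve NS1-induced slow growth of budding yeast raise OD600. Assay medium was yeast nitrogen base with ammonium sulphate and -URA supplement, pH 6.0, with 2% galactose.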
2A StopGo: lowers the luciferase signal of an FMDV 2A StopGo reporter. 410,000 compounds, 1.2% hits. Potency, µM (series often up to 57.9 µM), for the others: at the highest dose signal change, negative = less light. human cells with a luciferase reporter of 2A StopGo recoding; control for the full effect not named in the record; active = well fitted falling curve with a large enough effect; inconclusive = small, poorly fitted or top-dose-only effect; inactive = no such curve, though single readings can be large or run the other way; tested in HEK293T cells; also: % is scaled to controls: 0 for no effect and ±100 for the full control effect; nearly all actives have a fitted effect of over 45% in size; luciferase light after 4 h
Active calls of the source: *; ? = inconclusive; . = no result given; [ ] = remark or other dose. Unless noted, calls follow the shape of the dose curve; as a rule, active = well fitted curve in the direction sought with a large enough effect; inconclusive = small, poorly fitted or top-dose-only effect, or another doubt; inactive = no such curve, though single readings can be large; an effect the other way counts as inactive or inconclusive. Potency is read from the fitted curve at half-maximal effect.

SMILES	SARS PLP yeast	Lassa entry inh	MARV entry inh	Cruzain inh noDet	Cruzain inh Det	RE007 growth inh	NS1 inh	2A StopGo
Cc1ccc(CN2C(=O)c3ccccc3Sc3ccc(C(=O)N4CCC5(CC4)OCCO5)cc32)cc1	.	?	.	?	-0.2%	.	.	2.6%
COc1ccc(S(=O)(=O)NC2CC(C)(C)NC(C)(C)C2)c(C)c1C	-1.1%	.	-2.5%	-4.7%	5.5%	.	0.6%	.
COc1ccccc1N1CCN(CC(O)COc2ccc(S(=O)(=O)N3CCOCC3)cc2)CC1 (stereo not given)	-2.5%	-19.6%	?	8.6%	4.9%	3.1%	-3.5%	.
Cc1oc(-c2ccccc2F)nc1CS(=O)(=O)CC(=O)NCCCc1ccccc1	1.7%	.	-2.0%	?	-16.4%	-2.0%	-43.9%	-22.5%
COc1cccc(C2C(C(=O)NCc3ccccc3)=C(C)Nc3ncnn32)c1 (stereo not given)	1.7%	3.7%	?	0.8%	3.5%	12.0%	-13.1%	-1.1%
CC(C(=O)N1CCCCC1)N(C)CC(=O)Nc1ccc(Cl)cc1 (stereo not given)	0.0%	-20.1%	-3.6%	.	.	-20.7%	.	-7.0%
CCCc1nc(NCCCOCC)c2nnn(Cc3ccccc3)c2n1	4.3%	.	.	.	.	5.6%	-1.5%	-1.1%
COc1ccccc1-n1c(SCC(=O)O)nc2sc3c(c2c1=O)CCC3	0.7%	11.0%	-0.5%[46.1 µM]	.	.	3.6%	1.6%	28.8%
COc1cc(NS(=O)(=O)c2c(C)[nH]c(C)c2C(=O)N2CCCC2)cc(OC)c1OC	0.1%	.	.	.	.	7.5%	2.6%	-4.3%
Cc1cc(C)c(NC(=O)C2CCCO2)c(C)c1NC(=O)C1CCCO1 (stereo not given)	-1.4%	-1.4%	14.2%[46.1 µM]	.	.	3.8%	-8.6%	-10.7%
CC(C)c1ccc(/C=C/C(=O)NC(=S)Nc2ccc(CN3CCOCC3)cc2)cc1	-6.1%	?	?	?	-8.5%	?	25.0%	20µM*
Cc1cc(C)c(C(=O)CN2C(=O)NC3(CCCCC3)C2=O)cc1C	2.0%	3.6%[46.1 µM]	5.8%[46.1 µM]	.	.	3.8%	.	-2.3%
Cc1ccc(CNC(=O)CN2C(=O)COc3ccc(S(=O)(=O)N4CCC(C)CC4)cc32)cc1	.	-8.5%[46.1 µM]	?	?	-5.5%	.	.	-6.9%
Cc1ccc(C(=O)NN=Cc2ccc3c(c2)OCO3)cc1	.	-14.1%[46.1 µM]	?	.	.	9.8%	.	29.6%
N=C1/C(=C/c2cccn2CCOc2ccccc2)C(=O)N=C2SC=C(c3ccccc3)N12	7.7%	?	?	6.31µM*	-0.2%	-7.0%	14.6%	-16.3%
COc1ccc(CCN2C(=O)c3cccc4c(C(=O)N5CCCCC5)ccc(c34)C2=O)cc1OC	-12.9%	?	?	?	-5.1%	12.2%	10.6%	14.1µM*
CCCC(C)NC(=O)c1ccc(C2SCC(=O)N2Cc2ccco2)cc1 (stereo not given)	-4.2%	?	3.1%	-12.0%	-1.2%	9.6%	3.9%	-19.8%
CC1CCN(C(=O)/C(=C\c2cccs2)NC(=O)c2ccccc2)CC1	1.0%	?	0.5%[46.1 µM]	.	.	-16.1%	-14.2%	16.3%
CN(C)c1ccc(N=Cc2c(O)n(CCC3=CCCCC3)c(=O)[nH]c2=O)cc1	0.0%	-15.2%	-10.6%	-5.0%	2.4%	21.6%	11.3%	14.3%
CC(C)(C)c1[nH]nc2c1C(c1ccccc1OC(=O)N1CCOCC1)C(C#N)=C(N)O2 (stereo not given)	4.8%	1.4%	5.6%	9.3%	5.2%	6.3%	5.5%	.
Cc1c(NC(=S)NC(=O)c2ccco2)cccc1-c1nc2ncccc2o1	0.2%	-26.3%	-29.8%[46.1 µM]	.	.	25.8%	9.7%	?
Cc1nn(C)c(C)c1S(=O)(=O)N1CCCC(C(=O)NC2CCCCCC2)C1 (stereo not given)	-5.1%	6.5%	7.2%	3.4%	-0.9%	-7.4%	2.6%	?
CCCCNC(=O)CCCN1C(=O)c2cccnc2Sc2ccccc21	0.2%	.	.	.	.	3.2%	-3.9%	2.2%
COc1cc(/C=N/NC(=O)c2ccc(C)nc2)cc([N+](=O)[O-])c1O	1.5%	-23.5%[46.1 µM]	?	.	.	-13.9%	.	1.5%
CCSc1nnc(NC(=O)c2cccc(OCc3c(C)noc3C)c2)s1	-1.8%	?	?	7.6%	-7.9%	-9.2%	-12.0%	-15.9%
SMILES	SARS PLP yeast	Lassa entry inh	MARV entry inh	Cruzain inh noDet	Cruzain inh Det	RE007 growth inh	NS1 inh	2A StopGo
CCCNC(=S)N1CCCC(c2nc3ccccc3[nH]2)C1 (stereo not given)	2.0%	-4.6%	-7.0%[46.1 µM]	.	.	0.9%	.	-4.8%
COc1cccc(NC(=O)c2ccc3[nH]c(C)cc(=O)c3c2)c1	.	?	?	?	-4.6%	.	.	8.1%
COC(=O)N/N=C(\C)c1ccc(OC(F)F)cc1	1.8%	29.7%	?	.	.	2.7%	.	51.9%[activator]
Cc1cc(S(=O)(=O)Nc2cccnc2)c(C)s1	0.3%	1.3%	26.3%	-2.1%	1.6%	10.0%	-0.9%	34.0%[activator]
COc1ccc(/C=C(/NC(=O)c2ccccc2Cl)C(=O)NCCCC(=O)O)cc1	-0.5%	0.0%	15.0%[46.1 µM]	.	.	0.8%	6.0%	-16.9%
CCOC(=O)c1cc(-c2ccccc2)sc1NC(=O)C(C)Sc1nnc(N)s1 (stereo not given)	-54.2%	?	?	19.2%	-6.1%	.	9.3%	-11.2%
CC(C)NS(=O)(=O)c1ccc(NC(=O)C(C)OC(=O)CCC2CCCCC2)cc1 (stereo not given)	-5.9%	-1.1%	-0.2%	.	.	-8.2%	.	-17.4%
Cc1cc(C)cc(N2C(=O)CN(Cc3sccc3C)C2=S)c1	-4.3%	-15.6%	-1.4%	?	-4.2%	9.9%	16.8%	-11.0%
CCC(C)/C(C)=N/NC(=O)CNS(=O)(=O)c1ccc([N+](=O)[O-])cc1 (stereo not given)	2.8%	-19.8%[46.1 µM]	21.6%[46.1 µM]	.	.	-6.2%	.	-18.7%
COc1ccc(C(=O)OC/C(O)=C(\C#N)c2nc3ccccc3[nH]2)cc1S(=O)(=O)N1CCOCC1	15.6%	-0.9%	-6.2%	16.8%	-4.7%	-6.1%	23.1%	14.1%
COC(=O)C1=C(CSc2nccn2C)NC(=O)NC1c1cc(C)ccc1C (stereo not given)	10.0%	-7.2%	12.9%	-2.6%	2.7%	-2.8%	-7.1%	-8.2%
CCCC1C2C(=O)N(c3cccc(C)c3)C(=O)C2ON1c1ccccc1 (stereo not given)	0.2%	.	.	.	.	10.1%	-3.5%	4.7%
CSc1nccn1CC(=O)Nc1ccc(F)cc1	-3.4%	14.9%	8.8%	-9.9%	4.5%	23.5%	-0.8%	37.8%[activator]
CC(O)C(=O)N/N=C/c1ccccc1C(=O)O (stereo not given)	0.4%	3.8%	21.7%[46.1 µM]	.	.	2.3%	4.9%	12.8%
O=C(Nc1ccc(Cl)cc1)ON=C1CCCC1	-89.4%	-11.8%	?	1.3%	-2.1%	?	-42.7%	23.6%
COc1cc(OC)cc(C(=O)N2CCN(Cc3ccccc3Br)CC2)c1	-0.3%	.	.	.	.	8.1%	-6.0%	-12.1%
O=C(Cc1ccccc1[N+](=O)[O-])OCN1C(=O)c2ccccc2C1=O	10.0%	.	.	.	.	-3.0%	12.5%	45.2%[activator]
CCCCC(=O)NC1CC(=O)N(c2ccc3c(c2)OCCO3)C1 (stereo not given)	.	5.2%[46.1 µM]	.	-5.2%	-1.6%	.	.	-1.4%
Cc1cc(C)cc(SCc2noc(C(=O)NC(C)C)c2C(=O)NC(C)C)c1	1.5%	.	.	.	.	26.3%	14.1%	-18.5%
Cc1csc(SCC(=O)Nc2ccc(Cl)cn2)n1	0.2%	?	19.2%	-4.2%	-0.8%	-6.6%	-10.8%	20.8%
O=c1c2c(ncn2C2CCCC2)n(Cc2ccccc2)c(=O)n1CCOc1ccc(Br)cc1	-4.2%	-0.2%	1.8%	-23.3%	-4.1%	-2.7%	23.6%	-1.5%
COc1ccc(OC)c(S(=O)(=O)N2CCC(C(=O)Nc3cccc(C)c3C)CC2)c1	4.5%	0.3%	-6.9%	-5.0%	3.5%	21.5%	-8.7%	-29.0%
S=C(NCC1CCCO1)Nc1ccc(Cl)cc1Cl (stereo not given)	19.4%	?	-18.2%	1.8%	-2.9%	1.7%	8.5%	115.0%[activator]
CCOc1ccccc1NC(=O)c1cc2cc3cc(C)ccc3nc2s1	.	-0.7%[46.1 µM]	.	-4.5%	-0.4%	.	.	0.8%
CCNC(=O)CC1C(=O)N(c2cccc(OC)c2)C(=O)N1CCOC (stereo not given)	8.2%	-1.7%	21.7%[46.1 µM]	3.7%	4.2%	17.6%	-9.9%	-4.4%
SMILES	SARS PLP yeast	Lassa entry inh	MARV entry inh	Cruzain inh noDet	Cruzain inh Det	RE007 growth inh	NS1 inh	2A StopGo
CCN(CC)S(=O)(=O)c1cccc(N=Nc2c(O)c3ccccc3oc2=O)c1	0.1%	.	.	.	.	0.4%	1.6%	25.0%
CCCCn1c(COc2cccc(OC)c2)nc2ccccc21	.	14.0%[46.1 µM]	1.9%[46.1 µM]	-6.0%	-9.1%	.	.	3.5%
O=C(CCc1ccc(S(=O)(=O)NCCc2ccccc2)cc1)Nc1ccc2c(c1)OCO2	-0.4%	18.3%	-17.6%	-2.5%	-5.3%	-19.1%	7.2%	40.9%[activator]
COc1ccc(CNC(=O)C(C)Sc2nc3ccccc3c(=O)n2CCCN2CCOCC2)cc1 (stereo not given)	0.3%	-5.7%	-0.7%	.	.	-9.1%	.	-2.4%
N#Cc1nc(-c2ccccc2)oc1N1CCN(C(=O)c2ccco2)CC1	-4.0%	-1.4%	-5.4%	.	.	-3.3%	-8.8%	-11.3%
CCOc1ccc(S(=O)(=O)N/N=C2/CC(c3ccccc3)Oc3ccccc32)cc1 (stereo not given)	2.9%	-2.7%	?	?	0.5%	?	1.7%	36.0%[activator]
COc1ccccc1-n1c(CCn2nc(C)c(Br)c2C)n[nH]c1=S	-3.0%	0.7%	1.7%	2.4%	-0.5%	2.2%	-28.5%	0.0%
CC(=O)Oc1ccc(-c2csc(Nc3ccc(Cl)cn3)n2)cc1	?	.	.	.	.	-4.8%	-77.7%	22.9%
CC(=O)Nc1cc2c(cc1Cl)-c1ccccc1C2	.	13.2%[46.1 µM]	-7.6%	.	.	-2.3%	.	33.8%[activator]
